High-throughput results deposited in PubChem by Broad Institute.
Vaccinia inh = blocks a specific stage of Vaccinia orthopoxvirus infection. Vaccinia-infected cells, mCherry/Venus stage reporter fluorescence; active compounds read low; some inactives read as strong as hits. activity change (mCherry), % (test concentration not listed). 89,000 tested, 0.01% active. AID 1053133;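 active = mCherry past -33% and 40 or more points under the early reporter, replicates agreeing; inconclusive = past -33% without that gap or agreement; tested in A549 cells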;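 note: scaled between vehicle wells and reference inhibitor wells; 23 nL library stock went into each well; one replicate is shown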
Vaccinia inh Venus = also measured in Vaccinia inh; calls as there; activity change (Venus), %; measured here: Venus reporter, other viral stage;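 negative = less Venus signal; first of two replicates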
* marks the source's active call; other numbers are inactive results; ? = inconclusive; nt = not tested or not shown. Only part of the results is shown; the hit share may differ from the screen's.

SMILES | Vaccinia inh | Vaccinia inh Venus
C[C@@H]1CCCCO[C@H](CN(C)C(=O)c2ccccc2)[C@@H](C)CN([C@H](C)CO)C(=O)c2cc(NC(=O)Nc3cccc4ccccc34)ccc2O1 | 17.8 | 12.4
CC(=O)N(C)C[C@H]1Oc2ncc(-c3ccc(C(=O)N(C)C)cc3)cc2C(=O)N([C@@H](C)CO)C[C@@H]1C | 14.9 | 13.8
C[C@@H]1CN([C@@H](C)CO)C(=O)c2cccc(NC(=O)C3CCOCC3)c2O[C@@H]1CN(C)Cc1ccc2c(c1)OCO2 | 1.0 | 0.5
C[C@@H]1CN([C@@H](C)CO)C(=O)c2cc(C#CCN(C)C)cnc2O[C@H]1CN(C)C(=O)Nc1cccc(F)c1 | 5.6 | -4.7
COc1ccc(S(=O)(=O)Nc2ccc3c(c2)CC(=O)N([C@@H](C)CO)C[C@@H](C)[C@@H](CN(C)C(=O)Nc2ccccc2)O3)cc1 | 16.1 | 12.2
Cc1ccc(S(=O)(=O)N(C)C[C@H]2Oc3ccc(NS(=O)(=O)c4cccs4)cc3C(=O)N([C@@H](C)CO)C[C@H]2C)cc1 | 2.5 | 3.3
C[C@@H]1CN([C@@H](C)CO)C(=O)c2cccc(NS(C)(=O)=O)c2O[C@H]1CN(C)C(=O)NC1CCCCC1 | 11.4 | 0.7
O=C(C1=C[C@H](c2ccc(C(F)(F)F)cc2)C[C@H](OCc2ccc(CO)cc2)O1)N1CCN(Cc2ccccc2)CC1 | -7.6 | -4.4
COc1cccc(S(=O)(=O)Nc2ccc3c(c2)C(=O)N(C)C[C@H](OC)[C@@H](C)CN[C@H](C)CO3)c1 | 12.8 | 10.9
O=C(C[C@@H]1CC[C@H](NS(=O)(=O)c2ccccc2)[C@H](CO)O1)N1CCN(c2ccccc2)CC1 | 10.2 | -4.3
CC(C)NC(=O)N(C)C[C@H]1OCCCC[C@H](C)Oc2ccc(NC(=O)CCC(F)(F)F)cc2C(=O)N([C@H](C)CO)C[C@H]1C | 9.9 | 1.1
CCC(=O)N1[C@@H](CO)[C@@H](c2ccc(-c3ccccc3)cc2)[C@@H]1CN(CC)C(C)=O | 1.5 | 5.9
C[C@H](CO)N1C[C@H](C)[C@@H](CN(C)C(=O)Nc2ccc(F)cc2)Oc2ccc(NC(=O)Nc3ccccc3)cc2CC1=O | 8.9 | 3.2
CO[C@@H]1CN(C)C(=O)c2cc(NC(=O)c3ccccc3F)ccc2OC[C@H](C)N(C(C)=O)C[C@@H]1C | -6.8 | -2.2
CCC(=O)N[C@@H]1CC[C@H](CCn2cc(-c3cccc(OC)c3)nn2)O[C@@H]1CO | 8.9 | 7.9
C[C@@H]1CN([C@@H](C)CO)C(=O)c2ccccc2-c2ccccc2CO[C@H]1CN(C)C(=O)Oc1ccccc1 | 10.2 | 5.3
N#C[C@@H]1[C@@H](c2ccccc2)[C@H](CO)N1S(=O)(=O)c1ccc(F)cc1 | 22.2 | 1.8
C[C@@H]1CCCCO[C@@H](CN(C)C(=O)Nc2ccc3c(c2)OCO3)[C@@H](C)CN([C@@H](C)CO)C(=O)c2cc(NC(=O)C3CCCCC3)ccc2O1 | -11.3 | -0.7
O=C(C[C@@H]1CC[C@H]2[C@@H](COC[C@H](O)CN2CC2CCOCC2)O1)NCC1CC1 | -1.3 | 1.5
C[C@@H]1CN([C@@H](C)CO)S(=O)(=O)c2ccc(-c3cccc(C(=O)N(C)C)c3)cc2O[C@@H]1CN(C)C | 0.5 | 5.1
C[C@@H]1CN([C@@H](C)CO)C(=O)c2cc(NS(=O)(=O)c3cccs3)ccc2O[C@@H]1CN(C)S(C)(=O)=O | 30.2 | 24.6
COCc1cn(CC[C@H]2CC[C@@H](NC(=O)Nc3ccc4c(c3)OCO4)[C@H](CO)O2)nn1 | 3.1 | 8.9
C[C@H]1CN([C@@H](C)CO)C(=O)c2cc(C3=CCCCC3)cnc2O[C@H]1CN(C)Cc1ccccc1C(=O)O | 12.3 | 15.3
COCC(=O)N(C)C[C@@H]1Oc2cc(C#C[C@@H](C)O)ccc2S(=O)(=O)N([C@H](C)CO)C[C@@H]1C | 5.1 | -0.1
C[C@H]1CN([C@@H](C)CO)C(=O)Cc2cc(NC(=O)Nc3ccc(F)cc3)ccc2O[C@@H]1CN(C)Cc1ccc(C(=O)O)cc1 | 5.4 | -1.1
CCCNC(=O)Nc1ccc2c(c1)OC[C@@H](C)N(C)C[C@@H](C)[C@H](OC)CN(C)C2=O | 24.5 | 17.8
Cc1ccc(S(=O)(=O)N(C)C[C@H]2Oc3ccc(NC(=O)CCCN(C)C)cc3CC(=O)N([C@@H](C)CO)C[C@H]2C)cc1 | 38.4 | 28.4
COc1ccc(S(=O)(=O)Nc2ccc3c(c2)C(=O)N([C@H](C)CO)C[C@@H](C)[C@H](CN(C)C(=O)Nc2ccc(F)cc2)OCCCC[C@@H](C)O3)cc1 | ? | nt
C[C@H](CO)N1C[C@H](C)[C@H](CN(C)S(=O)(=O)c2cccs2)Oc2ccc(NC(=O)Nc3ccccc3)cc2C1=O | 4.1 | 5.0
CN(C)CC(=O)N[C@@H]1C[C@@H]2O[C@@H](CO)CC[C@@H]2O[C@@H]1CCc1ccc(C#Cc2ccccc2)cc1 | ? | nt
CC(C)NC(=O)N(C)C[C@@H]1Oc2ccc(NC(=O)C3CCCCC3)cc2C(=O)N([C@@H](C)CO)C[C@@H]1C | 5.1 | 2.8
Cc1noc(C)c1S(=O)(=O)Nc1cccc2c1O[C@H](CN(C)S(=O)(=O)c1ccc(F)cc1)[C@H](C)CN([C@H](C)CO)C2=O | -7.3 | -6.8
C[C@H]1CCCCO[C@H](CN(C)C(=O)Nc2ccc(C(F)(F)F)cc2)[C@@H](C)CN([C@@H](C)CO)C(=O)c2cc(NC(=O)Nc3ccc4c(c3)OCO4)ccc2O1 | -8.0 | -12.5
C[C@H](CO)N1C[C@H](C)[C@H](CN(C)S(=O)(=O)c2ccccc2)Oc2ccc(NS(=O)(=O)c3ccccc3)cc2CC1=O | 1.7 | 0.9
CNC[C@@H]1Oc2cc(-c3ccccc3OC)ccc2S(=O)(=O)N([C@@H](C)CO)C[C@H]1C | -6.6 | 8.1
C[C@@H]1CN([C@H](C)CO)C(=O)Cc2cc(NC(=O)Cc3cn(C)c4ccccc34)ccc2O[C@H]1CN(C)S(=O)(=O)c1ccc(F)cc1 | 20.0 | 14.9
C[C@@H]1CN([C@@H](C)CO)C(=O)c2c(c3ccccc3n2C)-c2ccccc2CO[C@@H]1CN(C)Cc1cccnc1 | ? | nt
C[C@@H]1CN([C@H](C)CO)C(=O)c2cc(NS(=O)(=O)c3ccccc3)ccc2O[C@@H](C)CCCCO[C@H]1CN(C)C(=O)C1CCCCC1 | -22.5 | -21.4
C[C@@H](NC(=O)C[C@@H]1CC[C@H](NC(=O)Cc2ccccn2)[C@H](CO)O1)c1ccccc1 | -7.1 | 1.1
CC(C)NC(=O)Nc1cccc2c1O[C@H](CN(C)C(=O)Nc1ccc(C(F)(F)F)cc1)[C@H](C)CN([C@@H](C)CO)C2=O | -17.4 | -4.7
C[C@@H]1CCCCO[C@H](CN(C)Cc2ccc(C(F)(F)F)cc2)[C@H](C)CN([C@@H](C)CO)C(=O)c2cc(NS(=O)(=O)c3ccccc3)ccc2O1 | ? | nt
CCS(=O)(=O)Nc1ccc2c(c1)C(=O)N(C)[C@@H]1CC[C@@H](CC(=O)Nc3ccccc3)O[C@@H]1CO2 | -2.8 | -13.5
CN(C)C(=O)C[C@@H]1CC[C@@H](NC(=O)NC2CCCCC2)[C@H](CO)O1 | 3.0 | 4.7
O=C(C1CCCC1)N1CC2(C1)[C@H](c1ccccc1)[C@@H](CO)N2C(=O)NC1CCCC1 | 11.3 | 9.9
CO[C@H](CN(C)S(=O)(=O)c1ccc(F)cc1)[C@@H](C)CN(Cc1ccccc1Cl)[C@H](C)CO | -10.5 | 0.3
Cc1noc(C)c1NC(=O)N(C)C[C@@H]1OCCCC[C@@H](C)Oc2ccc(NC(=O)Nc3ccc4c(c3)OCO4)cc2C(=O)N([C@H](C)CO)C[C@@H]1C | 19.2 | 9.4
O=C(C[C@@H]1CC[C@H]2[C@@H](COC[C@@H](O)CN2S(=O)(=O)c2ccccc2)O1)NCCN1CCCCC1 | -8.1 | 2.5
Cc1ccc(S(=O)(=O)Nc2ccc3c(c2)C(=O)N([C@@H](C)CO)C[C@@H](C)[C@H](CN(C)Cc2ccc(C(F)(F)F)cc2)OCCCC[C@H](C)O3)cc1 | ? | nt
CC=Cc1ccc2n(c1=O)C[C@H]1[C@H](CO)[C@@H](C(=O)Nc3nccs3)N(C(=O)CC)[C@@H]21 (mixture of isomers) | 23.2 | 14.2
Cc1ccccc1S(=O)(=O)N1[C@H](C#N)[C@H](c2ccc(C#CC3CCCCC3)cc2)[C@@H]1CO | ? | nt
COCCNC(=O)C[C@@H]1CC[C@H]2[C@@H](COc3ccc(NC(=O)c4cc(C)on4)cc3C(=O)N2C)O1 | 17.2 | 10.8
O=C(C[C@@H]1CC[C@@H](NC(=O)C2CC2)[C@@H](CO)O1)NCc1ccncc1 | 14.2 | 13.3
COCC(=O)N1[C@H](CO)[C@@H](c2ccccc2)[C@@H]1CN(C)C(=O)c1cccnc1 | 9.7 | 3.4
C[C@@H]1CCCCO[C@@H](CN(C)Cc2ccc3c(c2)OCO3)[C@@H](C)CN([C@H](C)CO)C(=O)c2cc(NS(=O)(=O)c3ccccc3)ccc2O1 | -9.7 | -7.1
CC(=O)N(C)C[C@H]1Oc2cc(-c3ccccc3C)ccc2S(=O)(=O)N([C@H](C)CO)C[C@@H]1C | -8.5 | -18.7
C[C@H](CO)N1C[C@H](C)[C@H](CN(C)S(C)(=O)=O)Oc2ccc(N(C)C)cc2C1=O | 1.8 | 8.3
C[C@@H]1CN([C@H](C)CO)S(=O)(=O)c2ccc(C#CC3(O)CCCC3)cc2O[C@@H]1CN(C)C(=O)Nc1cccc(F)c1 | -20.0 | -21.0
CC(C)CC#Cc1cnc2c(c1)C(=O)N([C@@H](C)CO)C[C@H](C)[C@@H](CN(C)C(=O)c1ccc3c(c1)OCO3)O2 | -5.2 | -7.7
C[C@@H]1CN([C@@H](C)CO)C(=O)c2cc(/C=C/c3ccccc3)cnc2O[C@H]1CN(C)Cc1ccncc1 | -11.3 | -5.7
C[C@@H]1CN([C@@H](C)CO)S(=O)(=O)c2ccc(-c3ccc(C#N)cc3)cc2O[C@@H]1CN(C)CC1CC1 | -7.8 | -6.3
The list goes on.
SMILES | Vaccinia inh | Vaccinia inh Venus
COc1cccc(-c2ccc3c(c2)O[C@@H](CN(C)Cc2cccnc2)[C@H](C)CN([C@@H](C)CO)S3(=O)=O)c1 | ? | nt
O=C(Cc1ccccc1)N1C[C@@H]2[C@H](c3ccccc31)[C@@H](CO)N2C(=O)c1cccc(F)c1 | 1.2 | -6.6
CCCC(=O)Nc1ccc2c(c1)OC[C@@H](C)N(CC1CCOCC1)C[C@H](C)[C@H](OC)CN(C)C2=O | -8.8 | -6.9
COc1ccc(NC(=O)N(C)C[C@H]2Oc3c(NC(=O)Nc4c(C)noc4C)cccc3C(=O)N([C@@H](C)CO)C[C@H]2C)cc1 | 4.5 | 5.3
O=C(C1=C[C@H](c2ccc3c(c2)Cc2ccccc2-3)C[C@H](OCCCCO)O1)N1CCCCC1 | 16.0 | 8.4
COCC(=O)N[C@H]1C[C@@H]2O[C@H](CO)CC[C@@H]2O[C@@H]1CCc1ccc(-c2ccccc2)cc1 | -15.7 | -2.5
C[C@H](NC(=O)[C@@H]1[C@@H](CO)[C@@H]2Cn3c(ccc(-c4cccnc4)c3=O)[C@@H]2N1C)c1ccccc1 | 1.1 | 0.5
O=C(C[C@H]1C=C[C@H](NC(=O)c2ccccn2)[C@H](CO)O1)NCc1cc(F)cc(F)c1 | 18.1 | 9.1
CC(C)(C)[S@](=O)N1Cc2cc(C(=O)N[C@H]3CCN(Cc4ccccc4)C3)nc(-c3cccc(-c4ccncc4)c3)c2[C@@H]1CCO | 7.8 | 15.3
COc1ccc(S(=O)(=O)N(C)C[C@@H]2Oc3c(NC(=O)Nc4ccc(C(F)(F)F)cc4)cccc3C(=O)N([C@H](C)CO)C[C@H]2C)cc1 | ? | nt
CO[C@@H]1CN(C)C(=O)c2cc(NS(C)(=O)=O)ccc2OC[C@H](C)N(C(=O)C2CCOCC2)C[C@@H]1C | 4.7 | 3.3
COCC(=O)N(C[C@@H]1N[C@@H](CO)[C@@H]1c1ccc(-c2ccccc2)cc1)C(C)C | -6.9 | 0.3
C[C@H](CO)N1C[C@H](C)[C@H](CN(C)C(=O)CC2CC2)Oc2ncc(C#CCC3CCCC3)cc2C1=O | -17.4 | -9.1
CO[C@H]1CN(C)C(=O)c2ccc(NC(=O)Nc3cccc(Cl)c3)cc2OC[C@@H](C)N(C(=O)Nc2c(C)noc2C)C[C@H]1C | -9.9 | -9.1
